KCNQ2 inh = KCNQ2 channel blockers in CHO-K1 cells – cell-based, FluxOR thallium flux, B-score, primary screen (AID 2156). actives 1.1% (n = 310,000). B-score at 10 µM. 20 min; stronger effect = lower value; only compounds with negative scores are shown here; some inactives read as strong as hits. O88943;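 active = fluorescence ratio B-score at most minus 3 library SDs, with starting brightness B-score within 2 library SDs, cut at about -5.5 in these data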
Target sequence (O88943 whole entry, looked up): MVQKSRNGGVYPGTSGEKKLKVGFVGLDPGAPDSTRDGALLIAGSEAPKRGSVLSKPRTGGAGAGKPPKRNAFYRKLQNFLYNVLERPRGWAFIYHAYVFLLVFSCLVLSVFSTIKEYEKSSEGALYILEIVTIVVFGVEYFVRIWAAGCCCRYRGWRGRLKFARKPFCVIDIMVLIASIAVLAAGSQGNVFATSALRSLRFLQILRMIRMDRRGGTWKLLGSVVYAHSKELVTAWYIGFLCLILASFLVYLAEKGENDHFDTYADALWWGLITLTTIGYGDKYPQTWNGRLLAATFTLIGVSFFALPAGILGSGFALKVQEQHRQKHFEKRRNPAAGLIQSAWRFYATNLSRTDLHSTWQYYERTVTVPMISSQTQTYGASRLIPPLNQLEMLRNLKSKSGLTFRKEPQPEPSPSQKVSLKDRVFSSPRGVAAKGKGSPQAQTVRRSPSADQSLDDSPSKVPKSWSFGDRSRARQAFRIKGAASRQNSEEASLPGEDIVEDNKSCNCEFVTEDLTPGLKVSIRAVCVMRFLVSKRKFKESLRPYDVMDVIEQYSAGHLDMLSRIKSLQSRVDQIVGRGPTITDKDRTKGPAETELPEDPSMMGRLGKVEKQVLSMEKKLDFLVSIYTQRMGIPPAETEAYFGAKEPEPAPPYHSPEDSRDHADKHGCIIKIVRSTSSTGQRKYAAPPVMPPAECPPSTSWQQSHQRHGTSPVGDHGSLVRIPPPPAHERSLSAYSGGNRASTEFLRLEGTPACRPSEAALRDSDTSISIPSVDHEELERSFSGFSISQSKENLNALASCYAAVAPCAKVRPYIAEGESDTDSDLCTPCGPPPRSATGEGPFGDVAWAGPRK
KCNQ2 inh baseline = recorded beside KCNQ2 inh, whose call it bears; B-score; measured here: initial fluorescence intensity artifact check;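 brightness before thallium and not channel activity; 0 = typical well and far values either way flag optical interference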
An asterisk follows results filed as active; i = inactive. Some of the compounds tested (hit frequency here may not be typical).

Every second line gives: KCNQ2 inh	KCNQ2 inh baseline
Cc1cccc(OCCSCc2nc3ccccc3[nH]2)c1
→ i	1.3
COc1cccc(CNCc2ccc(C(=O)O)cc2)c1OC
→ i	1
CCN1CCN(c2ccc(S(=O)(=O)N3CCCCC3)cc2NC(=O)COc2ccc(Cl)cc2)CC1
→ i	-1.1
Cc1ccc(C(c2c(C)nn(-c3ccccc3)c2N)c2c(C)nn(-c3ccccc3)c2N)cc1
→ i	0.87
Cc1ccc(C(=O)N/C(=C/c2ccc(F)cc2)C(=O)NCc2ccncc2)cc1
→ i	0.16
CC(C)C12CN3CC(C(C)C)(CN(C1)C3c1ccccc1)C2O (configuration not stated)
→ i	-1.7
Cc1ccc(-c2noc(-c3ccccc3C(=O)N3CCOCC3)n2)cc1
→ i	-0.37
OCCC1CN(Cc2cccn2-c2ncccn2)CCN1C1CCCC1 (configuration not stated)
→ i	2
COc1ccc(C2C(C(=O)Nc3ccccc3OC)=C(C)Nc3nnnn32)c(OC)c1 (configuration not stated)
→ i	1.2
Cc1cccc(NC(=O)c2cccc(S(=O)(=O)NCc3ccccc3)c2)n1
→ i	-1.1
O=C1CC(c2ccccc2)Sc2ccccc2N1 (configuration not stated)
→ i	-0.36
CCS(=O)(=O)c1ccc(C(=O)Nc2ccccc2)c(Cl)c1Cl
→ i	-1.9
O=C(COc1ccc(F)cc1)Nc1ccccc1N1CCOCC1
→ i	1.9
COc1ccc(C(=O)C/C(=C\C(=O)c2ccc(C)cc2)c2ccccc2)cc1
→ -7.7*	1.2*
NNC(=S)NC1CC2CC1C1C=CCC21 (configuration not stated)
→ i	-1.1
CC1(c2cccs2)CC(c2cccs2)=C(C#N)C(=O)N1 (configuration not stated)
→ i	0.11
CCC(C)C(NC(=O)C1CCC(C)CC1)C(=O)Nc1cc(OC)ccc1OC (configuration not stated)
→ i	-0.7
CCCCNC(=S)N(C)/N=C/c1ccccc1F
→ i	0.4
CC1Cc2ccccc2N1C(=O)COC(=O)c1ccccc1NCCO (configuration not stated)
→ i	-1.7
C/C(=N\NC(=O)CSc1nnc(C)s1)c1ccc(O)cc1
→ i	-1.1
CCN(CC)S(=O)(=O)c1ccc(NC2c3ncccc3C(=O)N2Cc2ccccc2)cc1 (configuration not stated)
→ i	0.17
Cc1ccc(-c2nnc(SCCC(=O)N3CCOCC3)o2)cc1
→ i	-2.6
CC(C)c1ccc(-c2nc(N3CCCCCC3)nc3n[nH]c(N)c23)cc1
→ i	0.42
CC(C)Nc1nc(NC(N)=S)nc(NC(C)C)n1
→ i	2.6
Cn1c(NCCO)nc2c(c1=O)C1(CCCCC1)Cc1ccccc1-2
→ i	0.06
COc1ccc(C2OC3=C(Nc4cc(C)c(C)cc4N3)C2=O)cc1 (configuration not stated)
→ i	1.1
Cc1nn(CC(=O)NCCCN2CCCCC2)c(=O)c2cc(-c3ccccc3)nn12
→ i	0.21
CSc1nc2ncc(-c3ccsc3)c(N)n2n1
→ i	0.37
c1ccc(C2=Nn3c(nnc3-c3n[nH]c4c3CCC4)SC2)cc1
→ i	-2.2
O=C(N/N=C/c1c(O)n(-c2ccc(Cl)cn2)c(=O)c2ccccc12)c1ccncc1
→ i	15
COc1ccc(CCN=C(N)NS(=O)(=O)c2cc(F)ccc2OC)cc1
→ i	-1
COc1cc(OC)cc(C(=O)NNC(=O)C2CCCC2)c1
→ i	-0.04
COc1cc(C(=O)N2C[C@@H]3CCC[C@H]2C3)ccc1OC1CCN(C(C)=O)CC1
→ i	-1
Cc1ccccc1Cn1c(=O)n(CCC(=O)NCc2ccc3c(c2)OCO3)c(=O)c2ccccc21
→ i	-0.21
N#C/C(=C(\O)CCl)c1nnc2n1CCCCC2
→ i	1.2
O=C(Nc1cccc(Cl)c1)/C(=C\c1cccnc1)NC(=O)c1ccco1
→ i	-0.22
COc1ccc(-c2nc3cnccn3c2Nc2ccc(C)cc2)cc1
→ i	0.76
O=C(NCCCCO)c1ccc2c3c(cccc13)CC2
→ i	-0.98
O=C(CCn1ccnc1)Nc1ccc2ccccc2c1
→ i	0.88
Cc1ccc(NC(=O)CCC(=O)OCC(=O)c2ccc(Oc3ccc([N+](=O)[O-])cc3)cc2)cc1
→ i	-3.2
CN(C)CCn1c2c(c(SCC(=O)Nc3nccs3)nc1=O)CCCC2
→ i	-0.03
Cc1ccc(COc2ccc(/C=N/O)cc2)cc1
→ i	4.7
CCC(C)(C)n1nnnc1C(C(C)C)N1CCN(C)CC1 (configuration not stated)
→ i	-0.7
CCOC(=O)C1CCN(S(=O)(=O)c2ccc3c(c2)CC(=O)N3)CC1
→ i	0.06
COc1ccc(OC)c(N(CC(=O)NC2CC3CCC2C3)S(=O)(=O)c2ccccc2)c1 (configuration not stated)
→ i	1.2
COc1ccc(Cc2nnc(NC(=O)Nc3ccccc3OC)s2)cc1
→ i	-0.01
Cc1cccc(N(C(=O)CCC(=O)Nc2nccs2)C(C(=O)NC(C)(C)C)c2ccc(O)cc2)c1 (configuration not stated)
→ i	-0.75
CCn1c(SCc2ccc(C(=O)OC)o2)nc2sc3c(c2c1=O)CCCC3
→ i	2.1
CC1Cn2c(nc3sc4c(c3c2=O)CCC4)N1CCO (configuration not stated)
→ i	2.7
COc1ccccc1OCC(=O)NCCCN1CCOCC1
→ i	1.4

The list continues:
Every second line gives: KCNQ2 inh	KCNQ2 inh baseline
CC(C)C(=O)N1CCN(c2ccccc2NC(=O)c2cccc(Cl)c2)CC1
→ -6.6*	2.4*
COc1ccc(C(=O)NC(C)CCc2ccccc2)cc1[N+](=O)[O-] (configuration not stated)
→ i	-0.14
CN(C(=O)c1ccccc1OCc1ccc(Cl)cc1)c1ccccc1
→ i	1.7
Cc1cc(C)c(-c2cc(NC(=O)COC(=O)c3ccc(C#N)cc3)n(-c3ccccc3)n2)cc1C
→ i	0.83
C=C(C)Cn1c(NCCC)nc2c1c(=O)n(C)c(=O)n2C
→ i	0.03
C=CCC1(CC=C)CCCN1C(=O)c1cc(COc2cccc(C(F)(F)F)c2)on1
→ -9.5*	-3*
O=C(O)/C(=C\C(=O)c1ccccc1)Nc1ccccc1
→ i	1.7
CCN=C1S/C(=C\c2cc(Br)ccc2OCC(=O)OCC)C(=O)N1CC
→ i	0.28
C/C=C(\C)C(=O)N1CC2(CC(c3cccc(NC(=O)CC(c4ccccc4)c4ccccc4)c3)=NO2)C[C@H]1C(N)=O (some centres not stated)
→ i	-0.5
CCOC(=O)C1CCCN(C(=O)Cn2nc(CC)n3c(cc4sccc43)c2=O)C1 (configuration not stated)
→ i	-0.33

Entries of single compounds from above. Order of screens: KCNQ2 inh	KCNQ2 inh baseline
`Cc1cc(C)c(-c2cc(NC(=O)COC(=O)c3ccc(C#N)cc3)n(-c3ccccc3)n2)cc1C` in the list: i	0.83
`C/C=C(\C)C(=O)N1CC2(CC(c3cccc(NC(=O)CC(c4ccccc4)c4ccccc4)c3)=NO2)C[C@H]1C(N)=O` (some centres not stated) in the list: i	-0.5
`CCN=C1S/C(=C\c2cc(Br)ccc2OCC(=O)OCC)C(=O)N1CC` in the list: i	0.28

Carrying on.
Every second line gives: KCNQ2 inh	KCNQ2 inh baseline
O=C(CSc1nnc(COc2ccccc2)n1Cc1ccco1)Nc1ccc2c(c1)OCCO2
→ i	0.18
CCn1ncc(C(=O)Nc2ccc([N+](=O)[O-])cc2OC)c1C
→ i	0.33
Cc1ccc(OCc2nc(-c3cccs3)no2)c([N+](=O)[O-])c1
→ i	1
COc1cccc(CN2CCN(Cc3cccc(Oc4ccccc4)c3)CC2)c1OC
→ i	1.8
CCCn1c(SCC(=O)N2CCCCC2)nnc1C(C)C
→ i	1.9
CCOc1ccc(S(=O)(=O)N/N=C(\C)c2ccc(OC)cc2OC)cc1
→ i	0.02
COc1ccc(-c2cc(-c3cccs3)c(C#N)c(SCC(=O)NCc3ccccc3)n2)cc1
→ i	1.3
O=C1c2ccccc2NC(c2ccccc2)N1/N=C/c1ccccc1 (configuration not stated)
→ i	-0.67
CCC1CCCCN1C(=O)c1ccc([N+](=O)[O-])o1 (configuration not stated)
→ i	0.68
CN(Cc1cnc2nc(N)nc(N)c2n1)c1ccc(C(=O)N[C@@H](CCC(=O)O)C(=O)O)cc1
→ i	-0.54
O=c1[nH]cnc2scc(-c3ccccc3)c12
→ i	0.58
Cc1ccccc1OCCn1cc(/C(N)=N/O)c2ccccc21
→ i	2.8
Cc1cc(C)cc(N(C(C)C(=O)NCc2ccc3c(c2)OCO3)S(C)(=O)=O)c1 (configuration not stated)
→ i	1.2
Cc1ccc(SCCC(=O)NCc2ccncc2)cc1
→ i	-0.09
COc1nc(Oc2ccc(=O)n(C)n2)nc(N(C)C)n1
→ i	-0.78
CCN1CCN(c2ccc(S(=O)(=O)N3CCCCC3)cc2NC(=O)/C=C/c2ccc([N+](=O)[O-])cc2)CC1
→ i	0.66
Fc1ccc(Nc2nc(N3CCOCC3)c3ccccc3n2)cc1
→ i	0.23
O=S(=O)(c1ccc(Cl)cc1)N1CCN(C(=S)Nc2ccccc2F)CC1
→ i	-0.15
O=C(NCCCn1ccnc1)/C(=C/c1cccs1)NC(=O)c1ccco1
→ i	2.9
COc1ccc(CN(C)CC(=O)Nc2cccc3ccccc23)cc1F
→ -5.8*	0.49*
Cc1ccc(C)c(S(=O)(=O)N2CCCOC2CNC(=O)C(=O)NCc2ccccc2)c1 (configuration not stated)
→ i	-0.86
Cc1ccc(S(=O)(=O)c2c(C)cc(C)nc2Oc2cccc(C)c2C)cc1
→ i	-0.39
CC(C)(C)C1CCc2onc(C(=O)NCc3ccc(F)cc3)c2C1 (configuration not stated)
→ i	-0.02
O=C(O)c1ncn(Cc2ccc(Br)cc2)c1C(=O)O
→ i	-0.99
COc1ccc(CCC(=O)Nc2ccc(Cl)c(S(=O)(=O)N3CCCC3)c2)cc1
→ i	0.74
CSCCC(NC(=O)c1ccccc1Cl)C(=O)Nc1cccc(S(=O)(=O)N2CCCC2)c1 (configuration not stated)
→ i	0.22
CCCSc1nnc(NC(=O)Nc2ccc(C)cc2)s1
→ i	0.52
O=C(Nc1ccc2c(c1)OCO2)NC1CCN(Cc2ccccc2)CC1
→ i	1.6
O=C(NC1CCN(Cc2ccccc2)CC1)c1ccccc1OCc1ccccc1
→ i	-1.6
CCN=c1scc(-c2ccc3c(c2)NC(=O)CO3)n1N=C1CCCC1
→ i	-0.29
CCn1c(SCC(=O)NCc2ccc3c(c2)OCO3)nnc1-c1ccncc1
→ i	0.82
COc1ccc(-n2c(=O)c3c4c(sc3n(CC(=O)Nc3cc(C)[nH]n3)c2=O)CCCC4)c(OC)c1
→ -6.7*	0.19*
CC(C)(C)C(O)C(Cc1ccccc1Cl)n1cncn1 (configuration not stated)
→ i	0.07
CCCN1CCN(CCCNC(=O)c2ccc3c(=O)n(CCc4ccccc4)c(=O)[nH]c3c2)CC1
→ i	-0.5
CCN1CCN(c2cc(C)c3cc(NC(=S)NCCN(C)C)ccc3n2)CC1
→ i	0.62
O=C(Nc1cc(Sc2nc3ccccc3s2)cc([N+](=O)[O-])c1)c1cccc(F)c1F
→ i	-0.64
C[C@@H]1[C@H]2[C@@H](O[C@@H]3O[C@H](CO)[C@@H](O)[C@H](O)[C@H]3O)OC=C(C(=O)O)[C@H]2C[C@@H]1O
→ i	-2.3
O=C(NCCCN1CCOCC1)c1ccc(Cl)s1
→ i	2.4
CCc1ccc(N(CC(=O)NC2CCCCC2)S(=O)(=O)c2c(C)noc2C)cc1
→ i	2.3
COc1ccc(OC)c(NC(=O)CSc2nnc(CNC(=O)COc3ccc(Cl)cc3)o2)c1
→ i	-0.22
CN(NC(=O)c1c(Cl)cccc1Cl)c1cccc(Cl)n1
→ i	-0.78
CNc1cc([N+](=O)[O-])ccc1N/C=C/C(=O)c1ccc2c(c1)OCO2
→ i	1.8
CS(=O)(=O)N(CC(=O)N1CCOCC1)c1ccc2c3c(cccc13)CC2
→ i	0.26
CC1CCc2nc(N)c(C#N)c(-c3cccnc3)c2C1 (configuration not stated)
→ i	0.94
O=C(NNC(=S)Nc1cccc(Cl)c1)c1ccccc1
→ i	-0.34
COc1ccc(-n2nc(C(=O)NCC(=O)NCc3ccc(F)cc3)c3ccccc3c2=O)cc1OC
→ i	-0.01
COCCNc1nnc(Cc2ccc(Cl)cc2)c(=O)[nH]1
→ i	0.17
CCOc1ccccc1CN1CCCC(C(=O)Nc2cccc(-n3cccn3)c2)C1 (configuration not stated)
→ i	-2.4
c1ccc(OCCN2CCN(Cc3nc(-c4ccc5c(c4)OCO5)no3)CC2)cc1
→ i	1.4
O=C(CN1CCCCC1)Nc1cccc(Cl)c1Cl
→ i	-0.1

A draw from above in order of length of the SMILES, lowest first:
Every second line gives: KCNQ2 inh	KCNQ2 inh baseline
O=C(CN1CCCCC1)Nc1cccc(Cl)c1Cl
→ i	-0.1
O=C(NNC(=S)Nc1cccc(Cl)c1)c1ccccc1
→ i	-0.34
COCCNc1nnc(Cc2ccc(Cl)cc2)c(=O)[nH]1
→ i	0.17
CCOc1ccccc1CN1CCCC(C(=O)Nc2cccc(-n3cccn3)c2)C1 (configuration not stated)
→ i	-2.4
CS(=O)(=O)N(CC(=O)N1CCOCC1)c1ccc2c3c(cccc13)CC2
→ i	0.26
COc1ccc(-n2nc(C(=O)NCC(=O)NCc3ccc(F)cc3)c3ccccc3c2=O)cc1OC
→ i	-0.01

Continued.
Every second line gives: KCNQ2 inh	KCNQ2 inh baseline
CCCCN=CC1=C(O)CC(c2ccccc2)CC1=O (configuration not stated)
→ i	-0.98
CCC(=O)c1ccc(OCC(O)CNC2CCCC2)cc1 (configuration not stated)
→ i	1.7
O=Cc1ccccc1Oc1nc(N2CCOCC2)nc(N2CCOCC2)n1
→ i	1.6
COc1cccc(C(=O)NCC2CCCN2S(=O)(=O)c2ccccc2)c1 (configuration not stated)
→ i	0.06
O=C(Nc1cccc(C(=O)NC2CCCCC2)c1)c1ccccc1
→ i	-1.4
CCOC(=O)N1CCN(C2=C(NS(=O)(=O)c3ccccc3)C(=O)c3ccccc3C2=O)CC1
→ i	0.11
